Screens as filed in PubChem BioAssay.
Tgondii IFNg: T. gondii growth inhibition with IFN-gamma, primary screen, cell-based | Toxoplasma gondii growth in IFN-gamma-treated host cells; hits give low values; reference of the scale not given here | activity change, negative = inhibition, %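 (about 20 µM by stock and volumes)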 | 3.8% of 69,000 active | AID 1259416, 2018;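 active means below -70%; inconclusive means fit judged invalid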;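 further: host cells are HeLa cells infected with Toxoplasma gondii; parasite growth read as luciferase light; one replicate is shown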
The depositor's hits bear a star; i = inactive; ? = inconclusive. An excerpt (hit frequency here may not be typical).

SMILES | Tgondii IFNg
Cc1cccc(C)c1NC(=O)C(=O)NCCc1csc(-c2cccc(F)c2)n1 | 25.1
CC1OCN(c2ccc(OC(F)(F)F)cc2)Cn2c1nc1ccc(Cl)cc12 (stereo unspecified) | 0.3
Cc1cc2ncn(CCC(=O)NCCc3nc4ccccc4n3C)c2cc1C | -6.9
COC(=O)CS(=O)(=O)c1nccn1C | -30.7
Cc1onc(-c2c(Cl)cccc2Cl)c1C1CC(=O)Nc2ccccc2S1 (stereo unspecified) | -47.5
Cc1ncc(C(=O)Nc2ccccc2F)c(CCNC(=O)CC2CCCCC2)n1 | 5.5
CCOC(=O)c1nc(N(C)C2CCCCC2)c2ccccc2n1 | -37.1
COc1ccc(C2(C(=O)N3CCC(n4nc(-c5ccsc5)ccc4=O)CC3)CC2)cc1 | -95.1*
O=C1Cc2cc(-c3cccc(-n4cccn4)c3)ccc2N1 | -92.9*
Cc1noc(C)c1S(=O)(=O)N(C)C[C@H]1Oc2c(NS(=O)(=O)c3cn(C)cn3)cccc2C(=O)N([C@H](C)CO)C[C@H]1C | 7.3
O=C1CC(c2ccncc2)C2(CCN(c3ncccn3)CC2)N1 (stereo unspecified) | 70.9
Cc1oc(-c2ccc(C(=O)NC3CCCCCCC3)cc2)nc1CN1CCc2ccccc21 | -25.2
Cc1c(N2C(=O)CSC23C(=O)Nc2ccccc23)c(=O)n(-c2ccccc2)n1C (stereo unspecified) | -2.9
Cc1nn(CC(=O)NC(Cc2cc(=O)[nH]c(-c3ccccn3)n2)c2ccccc2)c(C)c1C (stereo unspecified) | 5.2
CC(=O)N[C@@H]1c2ccccc2[C@H]2CN(C(=O)c3nc(Cl)sc3C(C)C)C[C@H]21 | 3.8
O=C(NC(=S)Nc1cccnc1)c1ccccc1 | -10.5
NC12CC3CC(C1)CC(O)(C3)C2 | -27.7
CC(C)n1c2ccccc2c2c1cc(C(=O)N1CCN(C)CC1)n2C(=O)N(C)C | 13.6
CCCNc1c(C(=O)OC)c(=O)[nH]c2c(Cl)cccc12 | -13.3
NC(=O)CN1CCOCCOCCN(CC(N)=O)CCOCC1 | -70.5*
COc1ccc(-c2nc(CCNC(=O)c3ccc(OC)cc3OC)cs2)cc1 | 42.2
CCOC(=O)c1nn(CCCc2ccccc2)c2c1CN(C(=O)c1cccnc1)CC2 | -4.1
CCCCc1c(O)cc(-c2ccccc2)n(Cc2ccccc2)c1=O | -76.1*
O=C(c1cnn2c(C(F)(F)F)cc(-c3ccco3)nc12)N1CCCCC1 | -0.3
COC[C@@H]1CN(C)C[C@@]12CCN(C(=O)N1CCCC1)C2 | 18.2
COc1cccc(-c2ccc3c(c2)O[C@@H](CN(C)Cc2cccnc2)[C@H](C)CN([C@H](C)CO)S3(=O)=O)c1 | -64.0
COCc1nc2c(o1)CN(C(=O)NCc1ccccc1)C2 | 4.0
CCCC(=O)Nc1ccc2c(c1)OC[C@@H](C)N(CC1CCOCC1)C[C@H](C)[C@@H](OC)CN(C)C2=O | -9.1
O=C(C[C@H]1CC[C@H]2[C@@H](COC[C@H](O)CN2C(=O)c2ccncc2)O1)NCc1cc(F)cc(F)c1 | 2.2
CCCc1cnc(C)nc1N1CCC(Cc2cccc(C(N)=O)c2)C1 (stereo unspecified) | -1.4
CCC(=O)N1CCOC2(COCCN(CC(=O)NC)C2)C1 (stereo unspecified) | 23.9
C[C@](N)(Cc1ccccc1)C(=O)N1CCC(N2CCSCC2)CC1 | ?
Cc1cc(C)cc(S(=O)(=O)N2CCC[C@@H]2C(=O)NCCc2csc(-c3ccccc3)n2)c1 | -41.6
C[C@@H]1CN([C@H](C)CO)C(=O)c2cc(NC(=O)C3CCCCC3)ccc2O[C@@H]1CN(C)Cc1ccc2c(c1)OCO2 | -15.4
Cc1cnc(C(=O)N2CCC3(CC2)CN(c2ncccn2)CCO3)cn1 | -61.3
Cc1ccsc1-c1nccn1CCc1n[nH]c(=O)[nH]1 | 17.3
CCc1csc(CNC2CCC3(CCNCC3)CC2)n1 | -75.8*
N[C@@H]1CC[C@@H](NC(=O)c2cc(C(F)(F)F)[nH]n2)C1 | 2.4
COc1ccc(-n2nnnc2SCC(=O)N2CCc3ccccc32)c(OC)c1 | -55.3
CN1C(=O)c2cc(NS(=O)(=O)c3cccc(F)c3)ccc2OC[C@H]2O[C@H](CC(=O)NCCN3CCCCC3)CC[C@H]21 | -4.4
OC(CN1CCN(c2nc3ccccc3s2)CC1)c1ccc(Cl)cc1 (stereo unspecified) | 0.7
COc1ccc2[nH]cc(CCNC(=O)c3c(-c4ccccn4)noc3C)c2c1 | -10.1
CC(=O)Nc1cccc(OCCCNS(=O)(=O)c2cn(C)c(C)n2)c1 | 2.6
COC(=O)c1cc2n(n1)CCCN(C1CCN(S(C)(=O)=O)CC1)C2 | 42.0
C=CCN(Cc1ccccn1)C(=O)CC(=O)Nc1cc(C)ccc1C | -3.3
CCc1ccccc1NC(=O)N1CCC2(CC1)c1cccn1-c1ccc(C)cc1N2CC | 205.9
CNC(=O)C[C@@H]1CC[C@H]2[C@@H](COC[C@@H](O)CN2Cc2ccccc2F)O1 | 11.8
O=C(C1CCCC1)N1CC2(C1)[C@H](c1ccccc1)[C@@H](CO)N2Cc1ccc(Cl)cc1 | -20.1
C=CCn1c(=O)c(-c2nc(-c3cccc(C)c3)no2)c(O)c2ccccc21 | 16.6
S=c1ccss1 | 7.6
Cc1cc(CC(C)Nc2nc(-c3cccnc3)nc3c2cnn3C)n[nH]1 (stereo unspecified) | -20.5
CCCc1cc(CNC(=O)c2cnc(C)nc2C)on1 | -2.1
O=C(c1ccc(Cl)cc1)N1CCCN(c2nccc(C(F)(F)F)n2)CC1 | -55.7
O=C(CSc1nnc(CNc2ccc(F)cc2)o1)c1ccccc1F | 0.4
C/C=C/c1ccc2c(c1)[C@H]1[C@H](CCN1C(=O)c1ccc3c(c1)OCO3)[C@H](CO)N2 | 8.4
Cc1cc(C)n(C(C)C(=O)N2Cc3cnc(-c4ccccc4)nc3C2)n1 (stereo unspecified) | -13.5
Cc1oc(-c2cccc(Cl)c2)nc1CSc1nc2c(c(=O)[nH]1)CN(C(C)C)CC2 | -11.2
C/C=C/c1ccc2c(c1)O[C@H](CN(C)C(=O)Nc1ccc(OC)cc1)[C@H](C)CN([C@@H](C)CO)S2(=O)=O | i
Cc1cnc(C(=O)N2CCCC(C(=O)c3ccc(Cl)cc3C)C2)cn1 (stereo unspecified) | -6.2
COc1ccc(NC(=O)c2nnn(Cc3nc(-c4ccc(Cl)cc4)oc3C)c2C)cc1 | -18.6

Reprinted from the part before: 4 entries, followed by the next part.
SMILES | Tgondii IFNg
Cc1oc(-c2cccc(Cl)c2)nc1CSc1nc2c(c(=O)[nH]1)CN(C(C)C)CC2 | -11.2
C/C=C/c1ccc2c(c1)O[C@H](CN(C)C(=O)Nc1ccc(OC)cc1)[C@H](C)CN([C@@H](C)CO)S2(=O)=O | i
Cc1cnc(C(=O)N2CCCC(C(=O)c3ccc(Cl)cc3C)C2)cn1 (stereo unspecified) | -6.2
COc1ccc(NC(=O)c2nnn(Cc3nc(-c4ccc(Cl)cc4)oc3C)c2C)cc1 | -18.6
CC(=O)N1C[C@@H]2C(=O)N(C)C3(CCN(S(=O)(=O)CC(C)C)CC3)[C@H]2C1 | -26.0
OCCOc1ccccc1-c1nccn1-c1ccc2c(c1)OCO2 | 1.8
O=C(O)c1ccccc1C1=Nc2ccc(O)cc2Oc2cc(O)ccc21 | 34.8
COCc1noc(CNCC(=O)Nc2cc(C)ccc2F)n1 | 2.7
C=CCN1C(=O)CCCC12CCCN(C(=O)CCc1ccccc1)C2 (stereo unspecified) | -5.6
COc1ccccc1-c1ccc(C(=O)NCC2(O)CCCNCC2)cc1 (stereo unspecified) | -22.3
CC(C)Cc1noc(C2CCCN(C(=O)c3cc(C4CC4)[nH]n3)C2)n1 (stereo unspecified) | -37.9
C1=CC[C@H]2CN(c3nncs3)C[C@H]2C1 | -2.6
CN(Cc1cc2n(n1)CCCNC2)Cc1nccn1Cc1ccccc1 | 1.5
COCC1CC2(CCN(Cc3ccc4ccccc4n3)CC2)CO1 (stereo unspecified) | -30.0
COc1cccc(-c2cnn3cccnc23)c1F | 208.7
NCCCCCC(O)(P(=O)(O)O)P(=O)(O)O | 6.9

Reprinted from the part before: 5 compounds, then new ones.
SMILES | Tgondii IFNg
C1=CC[C@H]2CN(c3nncs3)C[C@H]2C1 | -2.6
CN(Cc1cc2n(n1)CCCNC2)Cc1nccn1Cc1ccccc1 | 1.5
COCC1CC2(CCN(Cc3ccc4ccccc4n3)CC2)CO1 (stereo unspecified) | -30.0
COc1cccc(-c2cnn3cccnc23)c1F | 208.7
NCCCCCC(O)(P(=O)(O)O)P(=O)(O)O | 6.9
COc1cccc(F)c1-c1c(-c2ccccc2)ncn1CC(O)c1ccccc1 (stereo unspecified) | -4.9
NCCCCCc1nc2ccccc2[nH]1 | 83.2
CC(C)N1CCC(N2CCN(Cc3cc4ccccc4o3)CC2CCO)CC1 (stereo unspecified) | -0.4
CC(=O)c1ccc(-c2cccs2)s1 | -30.7
O=C(NCC1CCCCO1)c1cc(COc2c(F)cccc2F)on1 (stereo unspecified) | 8.6
CCOC(=O)c1sc2ncn(Cc3nc4ccccc4c(=O)[nH]3)c(=O)c2c1C | -17.6
Cc1nn(C)c2ncc3c(=O)n(Cc4ccc(Cl)cc4)n(C)c3c12 | -55.4
C[C@@H]1CCCCO[C@H](CN(C)C(=O)Cc2ccccc2)[C@@H](C)CN([C@@H](C)CO)C(=O)c2cc(NS(C)(=O)=O)ccc2O1 | 273.0
CCN(Cc1ccncc1)C(=O)c1cccc(NCc2ccc(C)cc2)c1 | -0.4
Cc1nc2sccn2c1C(=O)N(C)Cc1cn[nH]c1-c1ccccc1 | -0.7
COc1ccccc1NC(=O)Nc1ccc2c(c1)C(=O)N(C)[C@H]1CC[C@H](CC(=O)Nc3ccc4c(c3)COC4)O[C@@H]1CO2 | -43.3
O=C(Sc1cccs1)C1COc2ccccc2O1 (stereo unspecified) | 24.5
COc1cc(OC)nc(N2CC(c3cccnc3)C2)n1 | 4.3
CSc1nc(C)cc(OCCNS(=O)(=O)c2ccc(C)cc2)n1 | 7.4
Cc1cc(C)n(Cc2cc(C(=O)N3CCC(O)(c4ccccc4C)C3)n[nH]2)n1 (stereo unspecified) | -11.7
COc1ccc(-c2nnc(-c3nc(NCCCc4ccccc4)c4ccccc4n3)o2)cc1 | 159.3
Cc1ccc(CN2CCC3(CC2)CC[C@]2(C(=O)N(C)C)CN(C)C[C@@H]32)o1 | 10.0
C/C=C/c1ccc([C@H]2[C@@H](CO)N(Cc3cncnc3)C23CN(C(=O)COC)C3)cc1 | -57.7
COc1ccc2c3c([nH]c2c1)[C@H](CO)N(C(=O)NC(C)C)CC31CCN(C(=O)C2CCCCC2)CC1 | 130.0
C[C@@H]1CN([C@@H](C)CO)C(=O)c2cccc(N(C)C)c2O[C@@H]1CN(C)Cc1ccncc1 | 4.8
O=c1cc(O)c2c(=O)n(-c3ccccc3)c(-c3ccccc3)cc2o1 | -99.6*
Cc1cccc(-c2nnc(C)c(N3CCC(N4CCCCC4)CC3)n2)c1 | -50.3
COc1ccc(Cc2nnc(N)s2)cc1 | 95.7
CN(CC1=CC[C@H]2C[C@@H]1C2(C)C)Cc1nnc(-c2ccccc2)o1 | -37.6
Cc1ccc2c(c1C)-n1cccc1C1(CCN(C(=O)c3ccc(C#N)cc3)CC1)N2 | 42.0
Cn1ncc2c1C(COCC1CC1)CN(C(=O)CS(C)(=O)=O)C2 (stereo unspecified) | 58.2
CC(=O)N1CCC(C(=O)NCCc2cc(N(C)C)nc(-c3ccccn3)n2)CC1 | -3.4
Cc1noc(C)c1NC(=O)N(C)C[C@@H]1Oc2ccc(NC(=O)Cc3cn(C)c4ccccc34)cc2CC(=O)N([C@H](C)CO)C[C@H]1C | -38.9
C[C@@H]1CN([C@H](C)CO)C(=O)CCCn2nncc2CO[C@@H]1CN(C)C(=O)CCC(F)(F)F | 395.8
O=C(NC1(C(F)(F)F)Oc2ccc(Cl)cc2O1)Sc1ccccc1 (stereo unspecified) | 6.1
CCCCc1nc2ccccc2n1CC(O)COC1CC=CCC1 (stereo unspecified) | -30.8
Cc1noc(C(C)N(C)C(=O)c2coc(COc3cccc(F)c3F)n2)n1 (stereo unspecified) | 5.6
O=C(CCN1CCCO1)N1CCOc2c(O)cc(-c3cccnc3)cc2C1 | 4.7
Cc1ccc(C(=O)N2CCC3(CCN3Cc3cnn(C)c3)C2)cc1 (stereo unspecified) | -3.2
CN(C)C(=O)NC1COC2(CCN(Cc3nccn3C)CC2)C1 (stereo unspecified) | -0.7
CCOCC1CN(Cc2ccsc2)Cc2cn(CC3CC3)nc21 (stereo unspecified) | 13.8
CN(Cc1ccco1)C1CCCC2CN(S(=O)(=O)c3ccccc3)CC21 (stereo unspecified) | -37.0
Cc1ccc(-c2cn[nH]c2C2CCCN(C(=O)c3c[nH]c(=O)cn3)C2)cc1 (stereo unspecified) | -20.2
CC(C)(O)[C@H]1CC[C@@](C)([C@H]2[C@@H](O)C[C@@]3(C)[C@@H]4C[C@H](O[C@@H]5O[C@H](CO)[C@@H](O)[C@H](O)[C@H]5O)[C@H]5C(C)(C)[C@@H](O[C@@H]6OC[C@@H](O)[C@H](O)[C@H]6O)CC[C@@]56C[C@@]46CC[C@]23C)O1 | -3.0
Cc1ccc(O)c([C@H](CCN(C(C)C)C(C)C)c2ccccc2)c1 | 13.9
O=C(NC1CCC2(CC1)CC(=O)c1ccccc1O2)c1cc2ccccc2o1 (stereo unspecified) | -3.2
COCCN1CC2(CCC1=O)CCN(S(=O)(=O)C1CC1)CC2 | -19.8

Three entries drawn at random from those above:
SMILES | Tgondii IFNg
Cc1nc2sccn2c1C(=O)N(C)Cc1cn[nH]c1-c1ccccc1 | -0.7
COc1ccc(NC(=O)c2nnn(Cc3nc(-c4ccc(Cl)cc4)oc3C)c2C)cc1 | -18.6
CC(C)(O)[C@H]1CC[C@@](C)([C@H]2[C@@H](O)C[C@@]3(C)[C@@H]4C[C@H](O[C@@H]5O[C@H](CO)[C@@H](O)[C@H](O)[C@H]5O)[C@H]5C(C)(C)[C@@H](O[C@@H]6OC[C@@H](O)[C@H](O)[C@H]6O)CC[C@@]56C[C@@]46CC[C@]23C)O1 | -3.0
